Compound activity deposited in PubChem BioAssay by several laboratories.
Bead autofluor – counter-screen for toxin protease inhibitors: compound fluorescence; compound autofluorescence counterscreen, microsphere flow cytometry; active compounds read high; 360,000 compounds, 3.1% hits; fluorescence intensity (concentration not given with the values);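 active = at least 3 SD above the mean of all compounds, about 16000 in these data; inconclusive = too few beads counted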;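 note: 100 nL of 1 mM stock went into each well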
BJeLR viability – MLPCN primary cell-based screen for lethality selective to Ras in HRASV12 cells | BJeLR (HRASV12) viability, CellTiter-Glo ATP luminescence, 48 h; reference of the scale not given here | inhibition, % (no concentration beside the values) | 300,000 compounds, 0.17% hits;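 active = replicate mean above 50%; inconclusive = above 50% but judged a plate artefact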;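 note: 50 nL library stock added to about 25 µL; numbers are from one replicate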
PrP UTR inh – inhibition of PrP 5' UTR reporter expression | inhibition, % (test concentration not listed) | 340,000 compounds, 0.35% hits | cell-based PrP 5' UTR mRNA reporter, plate reader;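 active = every replicate at 50% or more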;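 note: 0 = median of the neutral control wells; tested in H4 reporter cells; numbers are from one replicate; inactives centre near -14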
Sa RN4220 lethal – growth inhibition of S. aureus RN4220, primary screen, OD600. AID 1259311, 2017. inhibition, % (concentration not given with the values). 16 h. 330,000 compounds, 0.33% hits;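 active = z-score of -3 or lower and OD600 up to 0.18 on both plates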;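 note: plate controls were untreated cells for no effect and reference antibiotic for full effect; stock transfer was 100 nL into about 80 µL; one replicate is shown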
Mtb hypoxia rep – PubChem AID 1159583; M. tuberculosis hypoxia-regulated fluorescent reporter, fluorescence; fluorescence inhibition, % (no concentration beside the values); 300,000 compounds, 0.1% hits;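 active = 35 to 45% if threefold the growth effect, above 45% if 1.5-fold the growth effect; inactive = the rest, general growth blockers included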;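 note: wells of about 50 µL received 100 nL stock; 0% = vehicle wells and 100% = reference inhibitor wells; whole bacteria with a GFP reporter of the hypoxia response; strong numbers were not always called active; many hits fall short of the cut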
Sa ugtP lethal – growth inhibition of ugtP-null S. aureus, primary screen, RN4220 ugtP deletion, OD600. 16 h; some inactives read as strong as hits. growth inhibition, % (no concentration beside the values). 330,000 compounds, 0.54% hits. AID 1259309, 2017;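 active = z-score under -3 and OD600 up to 0.15 on both plates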;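 note: plate controls were untreated wells for no effect and antibiotic for full effect; wells of about 80 µL received 100 nL stock; the first replicate is given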
Mtb hypoxia rep growth – further read-out of Mtb hypoxia rep, marked with its call; growth inhibition, %; measured here: M. tuberculosis growth (absorbance);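 0% = vehicle and 100% = reference antibiotic; read after six days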
* marks the source's active call; other numbers are inactive results; ? = inconclusive; / = not tested or not shown; & = joins results of further samples.

Every second line gives: Sa ugtP lethal	Bead autofluor	Mtb hypoxia rep	Sa RN4220 lethal	PrP UTR inh	BJeLR viability	Mtb hypoxia rep growth
- O=P1(NCCCn2cc[n+](Cc3nc4ccccc4[nH]3)c2)C=C(c2ccccc2)OC(c2ccccc2)=C1
  -1	4304	23	0.4	-38	-1	21
- Nc1nc(-c2ccco2)nc(N2CCCCC2)n1
  -6	3148	-3	1.5	1	-3	-1
- COc1cccc(OC)c1C(=O)N1CCNCC1
  7	3975	-1	2.1	8	-1	-3
- CCOc1ccc(N=C2NC(=O)S/C2=C\c2ccc(O)cc2)cc1
  /	3251	/	/	-22	-3	/
- O=C1CC(N2CCN(C3CCc4ccccc4C3)CC2)C(=O)N1c1ccccc1 (stereo not drawn)
  -1	2466	6	1.4	-3	2	11
- CC1CN(C)C(C)CC1OC(=O)C(c1ccccc1)c1ccccc1 (stereo not drawn)
  86*	3759	4	1.3	/	0	6
- Cn1c(=O)[nH]c2c(cnn2C)c1=O
  1	3842	1	1.8	-10	/	6
- CCCCCC1CCC(C(=O)NNC(=S)NCC)CC1 (stereo not drawn)
  2	9878	7	2.2	-15	4	12
- CCN1CCN(C(=S)c2ccc(Br)cc2)CC1
  5	10911	7	0.3	-26	6	-2
- Cn1cc([N+](=O)[O-])c(C(=O)NC2CCCC2)n1
  8	5725	6	2.9	-28	7	2
- CC(=O)Nc1cccc(-n2nnc(SCC(=O)Nc3ccccc3)n2)c1
  -1	4700	6	2.9	-24	-4	-1
- C=CCNC(=O)/C(=C\c1ccc2c(c1)OCO2)NC(=O)c1ccc(Br)cc1
  /	1985	/	/	-5	-21	/
- O=C(NCCN1CCC(Cc2ccccc2)CC1)C1CCCN(S(=O)(=O)c2cnc[nH]2)C1 (stereo not drawn)
  3	5534	/	-2.6	-22	-10	/
- CN(CC=Cc1ccccc1)Cc1cccc2ccccc12
  19	/	/	3.2	/	/	/
- CC1CCN(C(=O)Nc2ccc3nsnc3c2)CC1
  5	8311	18	4.7	-46	-14	8
- COc1ccccc1NC(=O)N(Cc1ccco1)Cc1cc2c(C)ccc(C)c2[nH]c1=O
  -2	3024	11	-3.8	-4	9	8
- CCc1ccc(/C=C2/SC(=S)N(CCC(=O)Nc3ccc(C(=O)O)cc3)C2=O)cc1
  /	6060	/	/	-10	1	/
- COCCN(CC(=O)NCc1ccc(F)cc1)C(=O)CCC(=O)Nc1nccs1
  8	4382	/	1.6	-5	0	/
- CCOC(=O)c1cc2c(ccc3nc(C)c(C)c32)[nH]c1C
  -6	3700	-8	-0.3	-16	0	6
- Cc1ccc(C(=O)Nc2ccc(S(=O)(=O)N3CCN(C)CC3)cc2)cc1
  -2	4323	/	1.4	-7	-7	/
- Cc1ccc(C)c(NC(=O)CSc2nc3ccccc3nc2N2CCOCC2)c1
  4	5766	5	-6.3	-7	-7	4
- Cc1nn2c(-c3ccncc3)ccnc2c1Br
  6	4192	13	7.6	-12	6	-1
- O=C(COc1cccc2c1CCNC2=O)NC1CCCCC1
  3	/	8	1.5	1	0	4
- CC(=O)c1ccc(N2CCN(CCC#N)CC2)c(F)c1
  2	2401	9	8.4	-23	6	1
- C=CCC(CC(=O)N(CCO)Cc1ccccc1)C(=O)NCC(OC(=O)C(CC=C)CC(=O)OC(C)(C)C)c1ccccc1 (stereo not drawn)
  11&7	/	10&10	-0.9&0.2	/	/	8&11
- Cc1ccc(C(=O)OCC(=O)NN2C(=O)NC3(CCC(C)CC3)C2=O)cc1 (stereo not drawn)
  13	?	7	2.8	-5	-8	-9
- CCOc1ccc(S(=O)(=O)Nc2cccc(C(=O)N3CCN(c4ccccc4O)CC3)c2)cc1
  -14	3002	3	0.8	-12	/	0
- O=C(Cc1cccs1)NNC(=S)NC(=O)c1ccccc1
  2	2032	7	14	-31	4	3
- C=CC(=O)N=c1sc2ccccc2n1-c1ccccc1
  /	4086	/	/	-5	-2	/
- CC(=NNC(N)=S)c1ccccc1
  1	/	/	6.3	/	/	/
- CCCN1CCC(N2CCCC(C(=O)O)C2)CC1 (stereo not drawn)
  -3	4103	0	3.4	-17	7	11
- Cc1cccc(NC(=O)C2CCCN2S(=O)(=O)c2ccc3c(c2)n(C)c(=O)c(=O)n3C)c1 (stereo not drawn)
  10	5713	2	1.1	-11	6	0
- CN(C)CCNC(=O)c1cc(Br)ccc1Cl
  -6	21132*	2	-2.5	-6	-10	15
- COc1ccc(CCNC(=O)CN2C(=O)NC3(CCCCC3)C2=O)cc1
  3	3911	12	3.9	-28	/	12
- Cc1cccc(S(=O)(=O)NN=c2sc3ccccc3n2C)c1
  2	/	-6	3.0	/	/	1
- Cn1ccnc1SCC(=O)Nc1nc2c(F)c(F)c(F)cc2s1
  6	4191	-2	3.1	-31	-2	-9
- NS(=O)(=O)c1ccc(NC(=S)NC(=O)C2CCCCC2)cc1
  89*	4380	13	4.9	-20	/	15
- CCOP(=O)(OCC)c1nc(-c2ccc(OC)cc2)oc1N1CCOCC1
  12	4608	14	5.6	-5	2	4
- COC(=O)c1ccc(CN2CCCC(C(=O)Nc3cccc(-n4cnnn4)c3)C2)cc1 (stereo not drawn)
  5	7962	-2	-0.1	0	7	-3
- C=CCOc1ccccc1CNCc1cccnc1
  -2	4485	4	6.1	-15	8	8
- Cc1ccc(C)c(S(=O)(=O)NCCOC(=O)Nc2sc(=S)n(C)c2C)c1
  -4	11229	4	1.8	-22	2	10
- Cc1cccc(C(=O)N2CCN(Cc3ccc4c(c3)OCO4)CC2)c1
  -1	4888	16	-11	-10	-5	14
- CCC(=O)Nc1ccc2c(c1)C(=O)N(C)C2=O
  10	2523	5	6.7	4	-6	2
- CN(c1ccccc1)S(=O)(=O)c1cccc(C(=O)N2CCN(c3ccccn3)CC2)c1
  -5	3092	-2	-10	1	-6	3
- c1ccc2c(c1)ccc1ncccc12
  -2	1986	-5	3.9	-11	3	-2
- COc1ccc(CN2CCN(S(=O)(=O)c3ccc(NC(C)=O)cc3)CC2)cc1OC
  -5	11746	-5	-1.0	-11	5	8
- Cc1csc(=Nc2c(C)n(C)n(-c3ccccc3)c2=O)n1Cc1ccccc1
  2&9	3767&2585	-1&10	4.4&3.3	-1&-1	-11	4&6
- COC(=O)[C@@H](NCc1cccc(CN[C@H](C(=O)OC)c2ccccc2)c1)c1ccccc1
  /	3710	/	/	-5	-8	/
- CCCCNC(=S)Nc1ccccc1Cc1ccccc1
  4	3246	4	5.7	-9	-8	-2
- COc1ccc(C(=O)N2CCN(S(=O)(=O)c3cc(Cl)ccc3OC)CC2)cc1
  -1	4802	/	-4.5	7	-2	/
- COc1cc(OC)cc(OC(=O)C2CCN(C3=NS(=O)(=O)c4ccccc43)CC2)c1
  3	3776	6	3.6	-27	/	7
- Cc1ccccc1-n1nc2c(c1NC(=O)c1ccco1)CS(=O)(=O)C2
  6	4163	-1	-1.0	-3	15	10
- O=C(OCC(=O)N1N=C(c2ccc(Cl)cc2)CC1c1ccco1)c1ccco1 (stereo not drawn)
  -30	4673	3	-1.1	-12	3	-6
- O=C(NC(=S)NCCN1CCOCC1)c1cccc(Cl)c1
  -9	22268*	-8	-1.7	-5	8	-5
- CCOc1ccccc1C1CC(=O)Nc2c1c(=O)n(C)c(=O)n2C (stereo not drawn)
  3	5883	2	2.2	-50	1	4
- CCN(CC)CCn1c2ccccc2c2nc3ccccc3nc21
  7	3644	-1	0.8	-32	-5	2
- O=C(C1CCCN(S(=O)(=O)Cc2ccccc2)C1)N1CCC(Cc2ccccc2)CC1 (stereo not drawn)
  -5	21341*	4	-3.1	-20	2	10
- O=C(CN(C1CCCCC1)S(=O)(=O)c1ccc(F)cc1)NCc1ccncc1
  -1	2523	1	-14	-8	2	5
- CCOC(=O)C1CCCN(S(=O)(=O)c2cc(OCC(=O)NC3CCCCC3)c(C)cc2Cl)C1 (stereo not drawn)
  0	/	3	0.6	-4	-6	4
- COc1cccc(C(=O)Nc2nc(SCc3ccc(Cl)cc3)n[nH]2)c1
  6	/	2	1.0	-26	1	12

Part of the list above in order of count of non-hydrogen atoms, descending:
Every second line gives: Sa ugtP lethal	Bead autofluor	Mtb hypoxia rep	Sa RN4220 lethal	PrP UTR inh	BJeLR viability	Mtb hypoxia rep growth
- C=CCC(CC(=O)N(CCO)Cc1ccccc1)C(=O)NCC(OC(=O)C(CC=C)CC(=O)OC(C)(C)C)c1ccccc1 (stereo not drawn)
  11&7	/	10&10	-0.9&0.2	/	/	8&11
- O=P1(NCCCn2cc[n+](Cc3nc4ccccc4[nH]3)c2)C=C(c2ccccc2)OC(c2ccccc2)=C1
  -1	4304	23	0.4	-38	-1	21
- CCOC(=O)C1CCCN(S(=O)(=O)c2cc(OCC(=O)NC3CCCCC3)c(C)cc2Cl)C1 (stereo not drawn)
  0	/	3	0.6	-4	-6	4
- O=C(NCCN1CCC(Cc2ccccc2)CC1)C1CCCN(S(=O)(=O)c2cnc[nH]2)C1 (stereo not drawn)
  3	5534	/	-2.6	-22	-10	/
- O=C(C1CCCN(S(=O)(=O)Cc2ccccc2)C1)N1CCC(Cc2ccccc2)CC1 (stereo not drawn)
  -5	21341*	4	-3.1	-20	2	10
- CCc1ccc(/C=C2/SC(=S)N(CCC(=O)Nc3ccc(C(=O)O)cc3)C2=O)cc1
  /	6060	/	/	-10	1	/
- O=C(OCC(=O)N1N=C(c2ccc(Cl)cc2)CC1c1ccco1)c1ccco1 (stereo not drawn)
  -30	4673	3	-1.1	-12	3	-6
- CCOP(=O)(OCC)c1nc(-c2ccc(OC)cc2)oc1N1CCOCC1
  12	4608	14	5.6	-5	2	4
- CC(=O)Nc1cccc(-n2nnc(SCC(=O)Nc3ccccc3)n2)c1
  -1	4700	6	2.9	-24	-4	-1
- CC1CN(C)C(C)CC1OC(=O)C(c1ccccc1)c1ccccc1 (stereo not drawn)
  86*	3759	4	1.3	/	0	6
- CCOc1ccccc1C1CC(=O)Nc2c1c(=O)n(C)c(=O)n2C (stereo not drawn)
  3	5883	2	2.2	-50	1	4
- Cc1cccc(S(=O)(=O)NN=c2sc3ccccc3n2C)c1
  2	/	-6	3.0	/	/	1
- O=C(Cc1cccs1)NNC(=S)NC(=O)c1ccccc1
  2	2032	7	14	-31	4	3
- CCCCCC1CCC(C(=O)NNC(=S)NCC)CC1 (stereo not drawn)
  2	9878	7	2.2	-15	4	12
- COc1cccc(OC)c1C(=O)N1CCNCC1
  7	3975	-1	2.1	8	-1	-3
- CCN1CCN(C(=S)c2ccc(Br)cc2)CC1
  5	10911	7	0.3	-26	6	-2
- CN(C)CCNC(=O)c1cc(Br)ccc1Cl
  -6	21132*	2	-2.5	-6	-10	15
- c1ccc2c(c1)ccc1ncccc12
  -2	1986	-5	3.9	-11	3	-2
- Cn1c(=O)[nH]c2c(cnn2C)c1=O
  1	3842	1	1.8	-10	/	6

Additional structures:
Every second line gives: Sa ugtP lethal	Bead autofluor	Mtb hypoxia rep	Sa RN4220 lethal	PrP UTR inh	BJeLR viability	Mtb hypoxia rep growth
- Cc1ccc(NC(=S)N2CCCC2)cc1C
  5	5896	7	1.1	-13	/	5
- O=C1CC(C(=O)NC2CCCCC2)C2(CCCCC2)O1 (stereo not drawn)
  11	4477	6	1.1	-17	-2	6
- O=C(NCc1cccnc1)/C(=C/c1ccc(-c2ccc(Cl)cc2)o1)S(=O)(=O)c1ccccc1
  3	7944	9	6.8	2	21	15
- O=C(Nc1cnn(Cc2ccc(Cl)cc2Cl)c1)c1cc(-c2cccs2)on1
  -24	8281	2	-0.1	8	4	8
- Cc1cc(=O)oc2cc(NC(=O)c3cccc(S(C)(=O)=O)c3)ccc12
  0	4345	0	1.3	-35	-8	2
- NC(=O)c1ccc(CSc2nc3ccccc3s2)cc1
  -7	4794	-4	1.3	-67	8	0
- CCN(CC)S(=O)(=O)c1cc(-c2nn(C)c(=O)c3ccccc23)ccc1C
  -6	3418	7	7.6	-9	-1	0
- CCOC(=O)C1CCN(c2nc3c(C)cccn3c(=O)c2/C=C(\C#N)S(=O)(=O)c2ccccc2)CC1
  10	5284	15	3.7	-31	-6	2
